Vaccinia pol inh: vaccinia E9 polymerase processive synthesis inhibition; in vitro processive DNA synthesis, absorbance read-out; hits give low values; some inactives read as strong as hits; normalized absorbance, % (no concentration beside the values); hit rate 0.94% among 46,000;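 active = replicate mean up to 90% and picked by the depositor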;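 also: 100% = median of the test wells of a plate; 100 nL library stock went into each well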
* marks the source's active call; other numbers are inactive results.

mol: CC12CCC(CC1)C(C)(C)O2
- Vaccinia pol inh: 97.2

mol: CC(=O)O[C@]1(C(C)=O)CCC2C3C=C(Cl)C4=CC(=O)[C@@H]5C[C@@H]5[C@]4(C)C3CC[C@@]21C (stereo not given in full)
- Vaccinia pol inh: 102.1

mol: Cc1cc(-c2ccccc2)nnc1NCCN1CCOCC1
- Vaccinia pol inh: 97.3

mol: O=C1c2ccc(O)c(O)c2C(=O)c2c(O)ccc(O)c21
- Vaccinia pol inh: 78.2

mol: CC1COc2c(N3CCN(C)CC3)c(F)cc3c(=O)c(C(=O)O)cn1c23 (stereo not given)
- Vaccinia pol inh: 100.0

mol: CN(C)CCOC(C)(c1ccccc1)c1ccccn1 (stereo not given)
- Vaccinia pol inh: 100.1

mol: CN1CCOC(c2ccccc2)c2ccccc2C1 (stereo not given)
- Vaccinia pol inh: 100.0

mol: CC(=O)NC(Cc1ccccc1)C(=O)O (stereo not given)
- Vaccinia pol inh: 100.0

mol: C[C@@H]1CC2C3C[C@H](F)C4=CC(=O)C=C[C@]4(C)[C@@]3(F)[C@@H](O)C[C@]2(C)[C@@]1(O)C(=O)COC(=O)C(C)(C)C (stereo not given in full)
- Vaccinia pol inh: 98.6

mol: OCCN1CCN(CCCN2c3ccccc3Sc3ccc(Cl)cc32)CC1
- Vaccinia pol inh: 99.3

mol: Cc1c(NC(=O)c2cccnc2)c(=O)n(-c2ccccc2)n1C
- Vaccinia pol inh: 100.5

mol: O=C(Nc1cc2cc[nH]c2cn1)c1ccccc1
- Vaccinia pol inh: 107.2

mol: CC(C(=O)O)c1ccc(C(=O)c2cccs2)cc1 (stereo not given)
- Vaccinia pol inh: 99.2

mol: CCN(CC)CCNC(=O)c1cc(Cl)c(N)cc1OC
- Vaccinia pol inh: 95.1

mol: CCC(=O)N1CCC(C(=O)O)CC1
- Vaccinia pol inh: 100.3

Some values from the list:
Cc1c(NC(=O)c2cccnc2)c(=O)n(-c2ccccc2)n1C – Vaccinia pol inh: 100.5
CC(=O)O[C@]1(C(C)=O)CCC2C3C=C(Cl)C4=CC(=O)[C@@H]5C[C@@H]5[C@]4(C)C3CC[C@@]21C (stereo not given in full) – Vaccinia pol inh: 102.1
CN(C)CCOC(C)(c1ccccc1)c1ccccn1 (stereo not given) – Vaccinia pol inh: 100.1
CCC(=O)N1CCC(C(=O)O)CC1 – Vaccinia pol inh: 100.3
CCN(CC)CCNC(=O)c1cc(Cl)c(N)cc1OC – Vaccinia pol inh: 95.1

Continued:
mol: Oc1ccc(/C=C/c2cc(O)cc(O)c2)cc1
- Vaccinia pol inh: 99.9

mol: CC(=O)[C@H]1CCC2C3C[C@H](C)C4=CC(=O)CC[C@]4(C)C3[C@@H](O)C[C@@]21C (stereo not given in full)
- Vaccinia pol inh: 100.1

mol: c1ccc(CN(CC2=NCCN2)c2ccccc2)cc1
- Vaccinia pol inh: 98.2

mol: c1ccc(CC2=NCCN2)cc1
- Vaccinia pol inh: 96.4

mol: O=S(=O)(c1cccc2cnccc12)N1CCCNCC1
- Vaccinia pol inh: 100.3

mol: C[C@@H](N)C1CCC(C(=O)Nc2ccncc2)CC1 (stereo not given in full)
- Vaccinia pol inh: 99.5

mol: C1CCC(C(CC2CCCCN2)C2CCCCC2)CC1 (stereo not given)
- Vaccinia pol inh: 100.3

mol: CC(COc1ccccc1)NC(C)[C@H](O)c1ccc(O)cc1 (stereo not given in full)
- Vaccinia pol inh: 100.4

mol: CN[C@@H]1[C@H](O)[C@H](NC)[C@H]2O[C@@]3(O)C(=O)C[C@@H](C)O[C@H]3OC2[C@H]1O (stereo not given in full)
- Vaccinia pol inh: 99.8

Rewritten in CSV form: part of the list above.
structure,Vaccinia pol inh
CC(=O)[C@H]1CCC2C3C[C@H](C)C4=CC(=O)CC[C@]4(C)C3[C@@H](O)C[C@@]21C (stereo not given in full),100.1
c1ccc(CN(CC2=NCCN2)c2ccccc2)cc1,98.2
c1ccc(CC2=NCCN2)cc1,96.4
O=S(=O)(c1cccc2cnccc12)N1CCCNCC1,100.3

Not all compounds are listed. The share of hits here may be higher or lower than overall.
